# Compound activity from PubChem.
# gsp ag: activates gsp, the McCune-Albright syndrome mutation. gsp mutant cells, cAMP HTRF, 30 min; control for the full effect not named in the record. Potency, µM (highest dose often 76.9 µM), inactives show at the top dose activation (cAMP increase), usual class: activators. 340,000 tested, 0.13% active; active = well fitted activation curve with a large enough effect; inconclusive = small, poorly fitted or top-dose-only effect, or another doubt; inactive = no such curve, though single readings can be large or run the other way; cell line not stated here;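 further: phosphodiesterase inhibitor Ro 20-1724 added with compounds to block cAMP breakdown; potency means the concentration at half of the fitted maximal effect; nearly all actives have a fitted effect of over 60% in size; about a fifth of the inactives were tested at one dose only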
#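 Cells stably selected in G418 were plated at 2000/well, grown 16-24 hr, then given compounds in DMSO with the PDE inhibitor […] (300 uM solution added) for 30 min at 37C; cAMP was read by HTRF.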
# ClpP mod: qHTS Assay for Activators of ClpP | 340,000 tested, 1.9% active | AID 651965, 2013 | purified B. subtilis ClpP, FRET peptide cleavage, 20 min | Potency, µM (series often up to 57.5 µM), for inactives: at the top dose activity change, negative = active | ATP-dependent Clp protease proteolytic subunit (Bacillus subtilis (strain 168)), P80244; active = well fitted falling curve with a large enough effect; inconclusive = small, poorly fitted or top-dose-only effect; inactive = no such curve, though single readings can be large or run the other way; further: potency means the concentration at half of the fitted maximal effect; the source files actives as falling curves though it sought activators and does not explain the sign; nearly all actives have a fitted effect of over 65% in size; many hits overshoot -100%
# Target sequence (P80244 whole entry, looked up): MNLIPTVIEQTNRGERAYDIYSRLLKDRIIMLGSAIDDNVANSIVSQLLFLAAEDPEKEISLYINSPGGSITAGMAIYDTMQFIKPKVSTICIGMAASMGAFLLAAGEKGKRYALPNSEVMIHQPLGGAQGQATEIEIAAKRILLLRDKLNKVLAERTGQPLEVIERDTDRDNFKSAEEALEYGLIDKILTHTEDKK
#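 Buffer: 100 mM Tris/HCl pH8, 100 mM KCl, 0.05% low protease BSA, 2.5% glycerol, 0.01% Tween-20. ClpP 10 microg/mL final; 20 min RT; delta FRET normalized to ADEP and DMSO controls.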
# Menin-MLL FL inh: inhibitors of human menin-MLL interaction, wild-type MLL peptide | Fluorescence polarization, fluorescein-MLL peptide displacement from menin | FP activity change, % at 61.4 µM | 290,000 tested, under 10 active; inconclusive = falling polarisation curve, or a change in total fluorescence; inactive = total fluorescence flat and polarisation flat or rising; no compound was filed as active; the % refers to the polarisation; negative = inhibition;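 further: % of control where 0% means no effect; inhibitors lower the polarisation; unlabelled MLL peptide was the positive control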
# TRPV1 potentiator: potentiators of human vanilloid receptor 1 (TRPV1); Q8NER1; TRPV1-expressing cells, Fluo-8 calcium influx, capsaicin EC20 potentiation; host cell line not named in the record; control for the full effect not named in the record; potentiation, % at 8.33 µM; 320,000 tested, 0.02% active; AID 540277; active means potentiation above 80%; inconclusive means 30% to 80%; inactive means below 30%; further: 0% is about no effect
# Target sequence (Q8NER1 whole entry, looked up): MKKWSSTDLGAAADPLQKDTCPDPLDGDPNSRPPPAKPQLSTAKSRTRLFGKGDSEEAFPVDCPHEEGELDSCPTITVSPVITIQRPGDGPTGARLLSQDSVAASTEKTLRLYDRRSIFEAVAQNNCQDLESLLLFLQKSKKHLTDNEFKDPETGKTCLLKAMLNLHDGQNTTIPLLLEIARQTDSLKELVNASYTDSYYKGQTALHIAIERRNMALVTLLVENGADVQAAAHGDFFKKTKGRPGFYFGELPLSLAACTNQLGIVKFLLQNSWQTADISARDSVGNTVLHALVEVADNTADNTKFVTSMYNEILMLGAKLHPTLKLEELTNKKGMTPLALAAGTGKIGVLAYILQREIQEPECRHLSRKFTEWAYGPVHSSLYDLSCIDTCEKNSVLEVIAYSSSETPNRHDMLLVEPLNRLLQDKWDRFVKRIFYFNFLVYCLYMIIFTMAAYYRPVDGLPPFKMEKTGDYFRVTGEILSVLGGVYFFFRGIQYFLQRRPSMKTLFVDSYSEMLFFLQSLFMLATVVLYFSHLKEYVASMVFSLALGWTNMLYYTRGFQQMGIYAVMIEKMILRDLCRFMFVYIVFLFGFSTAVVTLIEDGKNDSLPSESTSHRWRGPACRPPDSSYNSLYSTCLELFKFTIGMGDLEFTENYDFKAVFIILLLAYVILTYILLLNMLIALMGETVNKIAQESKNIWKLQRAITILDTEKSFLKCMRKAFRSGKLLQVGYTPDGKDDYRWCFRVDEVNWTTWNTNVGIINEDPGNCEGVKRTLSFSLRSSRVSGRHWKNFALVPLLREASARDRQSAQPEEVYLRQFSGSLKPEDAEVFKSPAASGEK
#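 Cells expressing TRPV1 were dye-loaded with Fluo-8 and read kinetically: 10 s baseline, 3 min after compound (agonist portion), then 2 min after EC20 capsaicin (allosteric enhancer portion). Calcium-bound dye fluorescence at 480/520 nm.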
# gsp antagonist: antagonizes gsp, the McCune-Albright syndrome mutation. gsp-mutant cells, cAMP HTRF, 30 min; control for the full effect not named in the record. Potency, µM (doses to about 76.9 µM), inactives show at the highest dose activity change, negative = inhibition, usual class: inhibitors. 340,000 tested, 0.4% active. AID 624288; active = falling curve of any shape with a large fitted effect; inconclusive = falling curve, mostly with a smaller effect; inactive = flat or rising curve; cell line not stated here;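 further: intracellular cAMP measured with PDE inhibitor Ro 20-1724 present during compound exposure; potency means the concentration at half of the fitted maximal effect; on the % scale 0 is the no-effect control and ±100 the full control effect; nearly all actives have a fitted effect of over 65% in size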
#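 Cells in G418 medium, seeded 16-24 h, 37C; buffer exchange to DPBS + 1 mM CaCl2, 0.5 mM MgCl2, 0.05% BSA; cpds in DMSO + […] (300 uM stock), 30 min 37C; HTRF cAMP detection.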
# D2 potentiator: human D2 receptor positive allosteric modulation | P14416 | DiscoveRx D2 beta-arrestin cells, luminescence, 90 min; 100% = 57 uM dopamine signal | potentiation, % (no concentration beside the values) | 360,000 tested, 0.23% active | AID 624464; active = potentiation of 50% or more; inconclusive = 30% to 50%; inactive = 30% or less;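 further: compound concentration not given in the record; tested on top of an EC20 dose of dopamine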
#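 D2 cells co-treated with compound plus 50 nM dopamine (EC20) for 90 min at 37 deg C to detect potentiation. Beta-arrestin recruitment was read as enzyme-fragment luminescence after 1 h at ambient temperature. Full response was set by 57 uM dopamine.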
# Sfp PPTase inh: Sfp phosphopantetheinyl transferase inhibition | Potency, µM, inactives show max response, negative = inhibition, usual class: inhibitors | 310,000 tested, 3.5% active | Biochemical Sfp PPTase activity, qHTS; active means well fitted inhibition curve with a large enough effect; inconclusive means small, poorly fitted or top-dose-only effect, or another doubt; inactive means no such curve, though single readings can be large or run the other way;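 further: the enzyme is Sfp with the accession as filed and its product quenches rhodamine fluorescence; potency means the concentration at half of the fitted maximal effect; 0% = enzyme reaction without inhibitor and -100% = no enzyme wells; top concentration of the series not given in the record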
#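 Buffer: 50 mM Hepes-Na pH 7.6, 10 mM MgCl2, 0.01% Nonidet P-40, 0.01% BSA. Enzyme 15 nM, pre-exposed to compound 15 min; substrates then added and fluorescence change tracked over 30 min.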
# An asterisk follows results filed as active; u = inconclusive; x = no result given; [ ] = another dose, or the depositor's remark.
SMILES,gsp ag,ClpP mod,Menin-MLL FL inh,TRPV1 potentiator,gsp antagonist,D2 potentiator,Sfp PPTase inh
Cc1ccc2nc(-c3ccccc3)c(NC(=O)c3ccco3)n2c1,u,1.4%,0.0,3,-4%,22,-1%
Cc1ccc(NC(=O)c2csc3c2CCCC3)cc1,1%[15.4 µM],x,0.2,-4,-16%,3,-32%
O=C(CSC1=NS(=O)(=O)c2ccccc2N1)Nc1nccs1,-2%,1.1%,x,2,6%,-15,x
CNC(=O)CSc1nc(N)c2c3c(sc2n1)CCC3,7%,-6.0%,3.9,5,-2%,-11,20%
Cc1ccc(S(=O)(=O)NCc2ccncc2)cc1C,33%,x,-4.6,7,0%,0,11%
CC(C)(C)NC(=O)C(Cc1ccccc1)N1C(=O)c2ccccc2C1=O (stereo not given),2%,-0.8%,-7.3,0,9%,-3,13%
Nc1ccccc1-c1ccccc1N,3%,7.9µM*,4.4,1,14%,0,-5%
COCCNC(=O)Cn1nc(Cc2ccncc2)c2ccccc2c1=O,27%,x,-1.4,29,10%,-4,7%
Nc1cc(N)nc(SCC(=O)NC(=O)NC2CCCC2)n1,9%[15.4 µM],-2.0%,x,7,4%,13,x
O=C1N=c2ccccc2=C1c1sc(=S)n(NC(=O)c2ccccc2)c1O,u,x,5.5,1,-17%,-7,-10%
COC(=O)c1cnc2ccccc2n1,-2%,1.2%,-0.5,10,11%,-4,4%
CN(C)S(=O)(=O)c1ccc(Cl)c(NC(=O)COC(=O)c2cc(-c3ccccc3)nc3ccccc23)c1,6%[15.4 µM],0.2%,1.7,-7,-7%,-13,6%
COc1cc(C)ccc1OCc1cc(C(=O)N2CCC(c3ccc(F)cc3)C2)no1 (stereo not given),-6%,2.5%,x,-1,5%,-2,5%
O=C(CCC(=O)N1CCOc2ccc(Cl)cc21)N1CCN(c2ccccn2)CC1,1%,4.0%,-0.3,u,-1%,-8,18%
O=C(CSc1cn[nH]n1)Nc1ccc(O)c(C(=O)O)c1,-15%,x,x,-2,10%,-1,-5%
CCSc1nnc2n1C(C)(C)Cc1ccccc1-2,u,-3.6%,1.2,-5,-9%,-7,1%
C=CCCCCCCCCC(=O)NN,-15%,-1.7%,-1.4,-8,3%,-11,17%
CCc1nc(C#N)c(N2CCCCC2)o1,-16%,-7.2%,4.3,5,1%,1,10%
Cc1cc(C)n2nc(C)c(Br)c2n1,3%[15.4 µM],x,-0.1,4,-14%,-3,18%
O=C(C(=O)c1cccnc1)c1cccnc1,-2%,1.7%,2.4,-1,5%,-24,3%
Cc1nc(SCC(=O)NC(=O)NC(C)(C)C)nc(C)c1C,-5%,0.4%,5.0,8,4%,-12,11%
COC(C(=O)Nc1ccnn1C1CCN(Cc2ccc(C)o2)CC1)c1ccccc1 (stereo not given),-19%,-2.6%,x,1,2%,-8,-4%
CNC[C@H]1Oc2c(NS(=O)(=O)c3ccc(F)cc3)cccc2C(=O)N([C@H](C)CO)C[C@@H]1C,x,-2.7%,x,x,6%,12,x
O=C(O)C1C2CCC1C(O)C2 (stereo not given),18%,-2.6%,x,x,x,-9,x
COc1ccc(C2=NS(=O)(=O)N(C)C(C(=O)NC3CCCC3)=C2)cc1OC,-3%,0.1%,0.1,-5,-5%,-5,14%
CC(NC(=O)c1cccs1)c1n[nH]c(=S)n1C (stereo not given),2%,-0.6%,1.2,2,1%,-3,11%
CC1(C)C=C2[C@H]3CC[C@@H]4[C@@]5(C)CCC(=O)C(C)(C)[C@@H]5CC[C@@]4(C)[C@]3(C)CC[C@@]2(C(=O)O)CC1,x,-0.3%,-1.0,-12,-16%,-3,-10%
Cc1ccc(N(CC(=O)NCc2ccco2)C(=O)CCC(=O)Nc2nccs2)cc1C,-14%[15.4 µM],x,-2.0,10,0%,-10,-2%
O=C(COc1ccc([N+](=O)[O-])cc1)N1CCc2ccccc2C1,-4%[15.4 µM],0.7%,1.1,-8,4%,-2,20%
CC(NS(=O)(=O)c1cccc(S(=O)(=O)c2ccccc2)c1)C(=O)O (stereo not given),-29%,-4.2%,0.4,9,6%,-17,-12%
Cn1c(=O)c2c(n(C)c1=O)=NC1(CCCCC1)N=2,-7%,-17%,-0.2,8,9%,-4,17%
COc1ccc(S(=O)(=O)NCC(=O)N(CC(=O)NC(C)(C)C)Cc2cccs2)cc1,-13%,-0.7%,-0.1,-3,16%,-8,5%
CC(C(=O)NN)c1ccc([N+](=O)[O-])cc1 (stereo not given),u,x,-3.3,-22,-7%,-2,-2%
S=c1[nH]nc(COc2ccccc2)n1/N=C/c1ccc(Cl)c(Cl)c1,19%,-2.4%,-0.4,-8,-34%,-7,56µM*
NS(=O)(=O)c1ccc(N/N=C/c2ccc(O)c(O)c2O)c([N+](=O)[O-])c1,-3%[15.4 µM],x,2.2,-11,-23%,14,4µM*
NNC(=O)CSc1c(-c2ccccc2)c2cc(Cl)ccc2[nH]c1=O,-58%[inhibitor][15.4 µM],x,-17,18,1%,7,5%
C[C@H]1CN([C@@H](C)CO)S(=O)(=O)c2ccc(-c3ccccc3)cc2O[C@H]1CN(C)C(=O)C1CCC1,-73%[inhibitor],-9.4%,x,x,x,-4,x
COc1ccc(S(=O)(=O)N(C)CC(=O)Nc2cccc(C(C)=O)c2)cc1C,8%,-3.0%,8.7,3,-24%,-9,9%
O=S(=O)(NC1=NCCC1)c1ccc(F)cc1,-6%,-1.6%,3.9,-3,-2%,6,14%
CCCn1c(SCC(=O)N2c3ccccc3CC2C)nnc1-c1ccco1 (stereo not given),-32%[inhibitor],1.1%,1.8,4,-8%,-6,13%
COc1ccc(-c2nnc(NC(=O)c3ccccc3[N+](=O)[O-])s2)c(OC)c1,2%,-0.3%,-11,-3,9%,-4,0%
CC(C)CNS(=O)(=O)c1ccc(CCC(=O)Nc2ccc3c(c2)OCCO3)cc1,-12%,-2.1%,0.0,0,6%,1,8%
COc1ccc(CNC(=O)C/C(C)=N/NC(=O)COc2ccccc2)cc1,11%[15.4 µM],x,0.5,0,-10%,2,0%
Cc1ccnc(N(C(=O)Nc2ccccc2)C2=NCC(C)(C)S2)c1,13%[15.4 µM],x,0.5,3,4%,-14,3%
O=C(NCc1csc2ccc(Cl)cc12)Nc1ccccc1,-35%[inhibitor],0.6%,0.7,-4,-10%,-23,-21%
CCN(CC(=O)NCc1ccc(F)cc1)C(=O)C(C)Oc1cccc(Cl)c1 (stereo not given),-19%,0.9%,x,-23,5%,0,x
O=C(CCNC(=O)c1ccc([N+](=O)[O-])cc1)Nc1ccc(F)cc1F,-3%,0.4%,-17,1,2%,-5,6%
CC(=O)c1cccc(NC(=O)CNC(=O)c2sc3ccccc3c2Cl)c1,-3%[15.4 µM],-4.5%,x,8,0%,-3,x
Cc1ccsc1/C=C1\SC(=S)N(CC2CCCO2)C1=O (stereo not given),0%[15.4 µM],-5.4%,-1.5,6,-15%,5,9%
O=C(CCN1CCN(c2ccccc2)CC1)NNC(=O)c1cccc2ccccc12,-36%,-3.5%,-2.8,-9,16%,-18,7%
Nc1nc(-c2ccccc2)c(N=Nc2ccccc2Cl)s1,-2%,-2.2%,3.2,29,-19%,-34,-3%
Cc1oc(C(=O)O)cc1COc1cccc2ccccc12,5%,-8.1%,-0.8,11,-23%,-3,15%
COc1ccc(C(=O)C2CCCN(C(=O)c3cccs3)C2)cc1F (stereo not given),3%[15.4 µM],x,-4.5,7,-4%,-4,2%
CCc1ccc(OC)c(S(=O)(=O)NCCOc2ccccc2)c1,-29%,0.6%,1.5,18,-24%,-12,6%
CC1=C(C(=O)OC(C)C)C(c2cccs2)NC(=O)N1 (stereo not given),7%,-1.1%,-0.5,14,6%,-1,16%
CCCCN1CC(Br)C(=O)NC1=O (stereo not given),2%,x,x,x,-1%,-4,x
CNC(=O)c1[nH]cnc1C(=O)Nc1ccccn1,9%[15.4 µM],x,3.8,11,-4%,-12,0%
COc1cc(C(=O)Nc2nnc(CC(C)C)s2)c([N+](=O)[O-])cc1OC,-3%,-3.1%,-2.1,-1,-20%,-16,8%
Cc1ccccc1NC(=O)CCC(=O)N/N=C/c1cccnc1,21%,1.1%,-2.3,14,7%,-13,24%
O=c1cc(-c2ccccc2)nc2c(-c3ccccc3)c(C(F)(F)F)[nH]n12,-2%[15.4 µM],x,-0.4,-11,-18%,1,5%

# Random excerpt: three entries already listed.
SMILES,gsp ag,ClpP mod,Menin-MLL FL inh,TRPV1 potentiator,gsp antagonist,D2 potentiator,Sfp PPTase inh
CC1=C(C(=O)OC(C)C)C(c2cccs2)NC(=O)N1 (stereo not given),7%,-1.1%,-0.5,14,6%,-1,16%
CCCCN1CC(Br)C(=O)NC1=O (stereo not given),2%,x,x,x,-1%,-4,x
Cc1ccsc1/C=C1\SC(=S)N(CC2CCCO2)C1=O (stereo not given),0%[15.4 µM],-5.4%,-1.5,6,-15%,5,9%

# Later entries:
SMILES,gsp ag,ClpP mod,Menin-MLL FL inh,TRPV1 potentiator,gsp antagonist,D2 potentiator,Sfp PPTase inh
O=C(NCc1ccc2c(c1)OCO2)c1cc(-c2cc(Cl)ccc2O)n[nH]1,0%[15.4 µM],x,3.2,2,3%,-1,16%
C=C(C)COc1ccc(-c2nc(N)nc(C(F)(F)F)c2-c2ccc(OC)cc2)c(O)c1,-1%,-2.0%,-1.6,12,-18%,-7,13%
COc1ccc(C(=O)NCC(c2ccccc2)c2ccccc2)cc1S(=O)(=O)N1CCOCC1,5%,-1.9%,x,x,-14%,-17,x
Cc1ccccc1N1C(=O)C(Cl)=C(N2CCN(c3ccccc3)CC2)C1=O,11%,4.4%,3.8,5,8%,-7,5%
COc1cc(/C=N/NC(=O)CCc2c(C)n[nH]c2C)cc(OC)c1OC,-1%,-18%,-2.0,u,1%,18,-1%
CCCN1CCC(=O)N(CCO)CC1,-47%[inhibitor],-1.7%,-3.3,-13,12%,0,12%
COc1ccc(-n2c(C)n[nH]c2=O)cc1OC,5%,-1.0%,-2.6,7,-12%,-5,24%
COc1ccc(OC)c(CNS(=O)(=O)c2cc(CN3C(=O)c4cccnc4C3=O)ccc2OC)c1,u,0.5%,x,7,8%,11,13%
